gsp agonist: agonists of gsp mutant (McCune-Albright syndrome); gsp mutant cells, cAMP HTRF, 30 min; control for the full effect not named in the record; Potency, µM (highest dose often 76.9 µM), inactives show top-dose activation (cAMP increase), usual class: activators; actives 0.13% (n = 340,000); AID 624287; active = well fitted activation curve with a large enough effect; inconclusive = small, poorly fitted or top-dose-only effect, or another doubt; inactive = no such curve, though single readings can be large or run the other way; cell line not stated here;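 note: phosphodiesterase inhibitor Ro 20-1724 added with compounds to block cAMP breakdown; potency is the fitted concentration of half-maximal effect; nearly all actives have a fitted effect of over 60% in size; about a fifth of the inactives were tested at one dose only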
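Cells stably selected in G418 were plated at 2000/well, grown 16-24 hr, then given compounds in DMSO with the PDE inhibitor […] (300 uM solution added) for 30 min at 37C; cAMP was read by HTRF.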
Sfp inh: Sfp phosphopantetheinyl transferase inhibition; Q9F4F7; Biochemical Sfp PPTase activity, qHTS; actives 3.5% (n = 310,000); Potency, µM, inactives show max response, negative = inhibition, most hits filed as inhibitors; active = well fitted inhibition curve with a large enough effect; inconclusive = small, poorly fitted or top-dose-only effect, or another doubt; inactive = no such curve, though single readings can be large or run the other way;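 note: the enzyme is Sfp with the accession as filed and its product quenches rhodamine fluorescence; potency is the fitted concentration of half-maximal effect; 0% = enzyme reaction without inhibitor and -100% = no enzyme wells; top concentration of the series not given in the record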
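Step 1, compound plus 15 nM Sfp-PPTase, 15 min, room temperature. Step 2, add rhodamine-CoA (5 uM) and BHQ-2-YbbR (12.5 uM). Step 3, read 525/598 nm fluorescence at 0 and 30 min.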
Menin-MLL FL inh: menin-MLL binding inhibition, fluorescein peptide | Fluorescence polarization, fluorescein-MLL peptide displacement from menin | FP activity change, % at 61.4 µM | 290,000 tested, under 10 active; inconclusive = falling polarisation curve, or a change in total fluorescence; inactive = total fluorescence flat and polarisation flat or rising; no compound was filed as active; the % refers to the polarisation; negative = inhibition;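 note: % of control where 0% means no effect; inhibitors lower the polarisation; unlabelled MLL peptide was the positive control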
ClpP mod: qHTS Assay for Activators of ClpP; ATP-dependent Clp protease proteolytic subunit (Bacillus subtilis (strain 168)), P80244; purified B. subtilis ClpP, FRET peptide cleavage, 20 min; Potency, µM (doses to about 57.5 µM), without a hit: top-dose activity change, negative = active; actives 1.9% (n = 340,000); AID 651965, 2013; active = well fitted falling curve with a large enough effect; inconclusive = small, poorly fitted or top-dose-only effect; inactive = no such curve, though single readings can be large or run the other way; note: potency is the fitted concentration of half-maximal effect; the source files actives as falling curves though it sought activators and does not explain the sign; nearly all actives have a fitted effect of over 65% in size; many hits overshoot -100%
Target sequence (P80244 whole entry, looked up): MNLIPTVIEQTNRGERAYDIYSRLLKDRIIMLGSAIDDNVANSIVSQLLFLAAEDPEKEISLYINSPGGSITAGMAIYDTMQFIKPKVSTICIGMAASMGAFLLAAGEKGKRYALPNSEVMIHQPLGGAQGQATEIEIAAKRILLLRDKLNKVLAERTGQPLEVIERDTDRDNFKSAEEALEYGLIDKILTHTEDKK
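FRET quenching reversal measured ClpP activation: 10 microg/mL B. subtilis ClpP at pH 8 with the FRET-FV decapeptide, read at 430 nm after 320 nm excitation. The 20-min minus 0-min signal was scaled between DMSO/no-enzyme wells and ADEP (5.8 microM final).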
gsp antag: antagonizes gsp, the McCune-Albright syndrome mutation; gsp-mutant cells, cAMP HTRF, 30 min; control for the full effect not named in the record; Potency, µM (series often up to 76.9 µM), for the others: top-dose activity change, negative = inhibition, most hits filed as inhibitors; actives 0.4% (n = 340,000); active = falling curve of any shape with a large fitted effect; inconclusive = falling curve, mostly with a smaller effect; inactive = flat or rising curve; cell line not stated here;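 note: intracellular cAMP measured with PDE inhibitor Ro 20-1724 present during compound exposure; potency is the fitted concentration of half-maximal effect; % is set by controls: 0 for no effect and ±100 for the full control effect; nearly all actives have a fitted effect of over 65% in size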
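Cells, 2000/well, grown 16–24 h in DMEM 10% FBS with 0.5 mg/ml G418, then compounds plus […] (300 uM addition stock), 30 min at 37C. cAMP read by HTRF (cAMP-d2 and anti-cAMP antibody-K in lysis buffer) after 30 min RT.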
TRPV1 PAM: potentiators of human vanilloid receptor 1 (TRPV1) | Q8NER1 | TRPV1-expressing cells, Fluo-8 calcium influx, capsaicin EC20 potentiation; host cell line not named in the record; control for the full effect not named in the record | potentiation, % at 8.33 µM | actives 0.02% (n = 320,000); active means potentiation above 80%; inconclusive means 30% to 80%; inactive means below 30%; note: 0% is about no effect
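Fluo-8 calcium influx in TRPV1-expressing cells, kinetic read (ex 480/em 520 nm). Compound added and read 3 min for agonist activity, followed by capsaicin at EC20 final and 2 min further read for enhancement.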
TRPML1 inh: inhibitors of human TRPML1 channel. TRPML1-inducible cells, Ca2+ dye fluorescence, FDSS; active compounds read low; inhibition of EC80 agonist-evoked calcium signal. AID 624415. actives 0.02% (n = 390,000). activity change, negative = inhibition, % (concentration not given with the values); in the data active means activity change below about -50%; inconclusive means about -30% to -50%; inactive means above about -30%;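 note: stimulus is agonist 54-4 at its EC80 concentration; % is set by controls: 0 for no effect and ±100 for the full control effect; the text of the record puts the active cut at -80%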
Target sequence (Q9GZU1 whole entry, looked up): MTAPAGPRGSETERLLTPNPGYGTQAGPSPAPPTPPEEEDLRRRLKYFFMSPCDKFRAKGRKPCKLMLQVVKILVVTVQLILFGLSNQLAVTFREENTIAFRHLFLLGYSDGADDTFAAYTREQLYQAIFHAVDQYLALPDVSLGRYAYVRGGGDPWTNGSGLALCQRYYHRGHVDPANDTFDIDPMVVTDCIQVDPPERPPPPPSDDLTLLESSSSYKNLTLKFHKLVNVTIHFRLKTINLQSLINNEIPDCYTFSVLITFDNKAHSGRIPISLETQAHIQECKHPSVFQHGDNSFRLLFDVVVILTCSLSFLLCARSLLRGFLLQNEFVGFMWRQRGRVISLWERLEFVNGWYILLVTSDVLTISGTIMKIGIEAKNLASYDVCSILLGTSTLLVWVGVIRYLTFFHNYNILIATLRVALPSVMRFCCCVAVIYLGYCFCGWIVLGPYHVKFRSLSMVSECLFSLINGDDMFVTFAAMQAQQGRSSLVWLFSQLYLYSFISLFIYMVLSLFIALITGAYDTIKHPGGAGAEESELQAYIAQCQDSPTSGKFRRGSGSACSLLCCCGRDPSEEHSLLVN
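Tet-induced TRPML1-DL cells loaded with Ca8 no-wash calcium dye were read kinetically on FDSS. Compound addition was followed by EC80 agonist 54-4 (4 uM final); inhibition was read over 110 s.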
* = called active by the depositor; ? = inconclusive; . = no result given; [ ] = dose if it differs, or a comment.

SMILES | gsp agonist | Sfp inh | Menin-MLL FL inh | ClpP mod | gsp antag | TRPV1 PAM | TRPML1 inh
COc1ccc(NC(=O)c2ccc(NCCCN3CCOCC3)c([N+](=O)[O-])c2)cc1 | -36%[inhibitor] | ? | 1.2 | -29% | ? | -3 | 22
COc1ccccc1-c1nnc(NC(=O)c2cccc(N3C(=O)CCC3=O)c2)o1 | -2% | 2% | 2.0 | 0.7% | 2% | 14 | 6
CCc1ccc(C(=O)CCC(=O)Nc2ccc(OC)c(S(=O)(=O)N3CCCCC3)c2)cc1 | -26% | . | . | 1.9% | 4% | -6 | 5
Cc1cc(C)c2nc(NC(=O)c3ccc([N+](=O)[O-])o3)sc2c1 | 4%[15.4 µM] | 23% | 4.7 | -0.5% | -9% | -11 | -6
COCCN1C(=O)N(c2cccc(OC)c2)C(=O)C1CC(=O)Nc1ccc(Cl)cc1 (stereo not drawn) | 8%[15.4 µM] | 7% | 0.7 | 0.2% | 0% | 11 | -14
COc1ccc(CCNC(=O)CS(=O)(=O)Cc2nc(-c3ccccc3Cl)oc2C)cc1OC | -39% | 6% | 0.0 | 0.4% | 0% | 2 | -6
Cc1[nH]c2ccccc2c1-c1csc(N)n1 | -24% | -7% | 3.0 | . | -3% | -11 | -2
Cc1oc(-c2ccc(Cl)cc2)nc1CN1CCC(C(=O)N2CCN(Cc3ccccc3)CC2)CC1 | 6% | 2% | 1.1 | -1.7% | 6% | ? | -4
O=C(COc1ccc(S(=O)(=O)Nc2ccc(Cl)cc2)cc1)N1CCOCC1 | ? | -3% | . | -10% | 0% | -8 | 19
Cc1cc(C)c(S(=O)(=O)N2CCN(C(=O)C3COc4ccccc4O3)CC2)c(C)c1 (stereo not drawn) | 7% | . | . | -1.3% | -14% | -1 | -3
CC(C)=CCN1CCN(Cc2cnc(-c3ccccc3)s2)CC1CCO (stereo not drawn) | ? | 0% | -6.7 | 1.7% | 11% | 3 | -3
CCC(=O)N/C(=N\OCc1ccc(F)cc1)c1nonc1NC(=O)CC | 10% | 5% | 3.4 | -1.7% | 2% | . | -16
CN1CCc2c(sc3c2C(=O)NC(c2ccc(-c4cccc(Cl)c4)o2)N3)C1 (stereo not drawn) | ? | 50µM* | ? | 3.6% | -8% | -13 | 1
CC(C)c1ccc(S(=O)(=O)N2CCN(C(C)C(=O)NC3CCCC3)CC2)cc1 (stereo not drawn) | ? | . | . | 0.8% | -11% | -15 | -1
COc1ccc(NC(=O)CN(C)C(=O)c2cn(-c3ccccc3)nc2-c2ccc(Cl)cc2)cc1 | -4%[15.4 µM] | . | . | -26% | ? | 5 | 13
Cc1ccc(NC(=O)COC(=O)CCNS(=O)(=O)c2c(Cl)cccc2Cl)cc1 | -22% | . | . | . | -3% | . | 1
C[C@H]1CN([C@@H](C)CO)S(=O)(=O)c2ccc(Br)cc2O[C@H]1CN(C)Cc1ccccc1F | -48%[inhibitor] | . | . | -1.6% | . | . | 20
O=C(c1ccc2c(c1)OCO2)N1CCCC1 | 7% | 6% | 3.8 | -5.4% | 10% | 9 | -7
COc1cc(OC)c2c(-c3cccc(-c4ccc(C(F)(F)F)cc4)c3)cc(=O)oc2c1 | . | -4% | 1.1 | -26% | 8% | . | -4
Cc1ccc(S(=O)(=O)N(C)CC(=O)NCCCn2nc(C)cc2C)cc1 | ? | . | . | -9.9% | -1% | . | 18
COc1ccc(-n2ncc3c(=O)n(Cc4c(F)cccc4Cl)cnc32)cc1 | -3%[15.4 µM] | 11% | -1.9 | -9.8% | 1% | 12 | 33
Nn1c(SCc2cn3cc(Cl)ccc3n2)nnc1-c1ccncc1 | 0%[15.4 µM] | -19% | 1.1 | . | . | -1 | 34
O=C1CSC(c2cn(-c3ccccc3)nc2-c2cc3ccccc3oc2=O)N1Cc1ccccc1 (stereo not drawn) | 23% | 8% | 5.7 | 28µM* | 4% | 3 | 61
O=C(OCc1ccccc1C(F)(F)F)c1ccc(Br)c(S(=O)(=O)N2CCOCC2)c1 | 3% | . | . | -1.6% | -1% | . | 80
O=C(COc1ccc(S(=O)(=O)N2CCCCC2)cc1)NCC1CCCO1 (stereo not drawn) | -13%[15.4 µM] | 14% | -5.1 | . | 12% | -6 | -14

Compound profiles, from the list above:
`Cc1cc(C)c(S(=O)(=O)N2CCN(C(=O)C3COc4ccccc4O3)CC2)c(C)c1` (stereo not drawn) in the list: gsp agonist: 7%; Sfp inh: .; Menin-MLL FL inh: .; ClpP mod: -1.3%; gsp antag: -14%; TRPV1 PAM: -1; TRPML1 inh: -3
`CN1CCc2c(sc3c2C(=O)NC(c2ccc(-c4cccc(Cl)c4)o2)N3)C1` (stereo not drawn) in the list: gsp agonist: ?; Sfp inh: 50µM*; Menin-MLL FL inh: ?; ClpP mod: 3.6%; gsp antag: -8%; TRPV1 PAM: -13; TRPML1 inh: 1

(list continues)
SMILES | gsp agonist | Sfp inh | Menin-MLL FL inh | ClpP mod | gsp antag | TRPV1 PAM | TRPML1 inh
COc1ccc(F)cc1C(=O)C1CCCN(C(=O)Cc2c(C)noc2C)C1 (stereo not drawn) | 0% | 8% | -2.5 | . | -1% | 1 | -4
O=S(=O)(NCc1cccs1)c1cccc(S(=O)(=O)N2CCCCC2)c1 | -1% | 11% | -0.1 | 1.2% | -1% | -2 | -3
O=C(O)CCc1nc(-c2ccc(Cl)cc2)no1 | -3% | 11% | 1.2 | -22% | 5% | 13 | 4
COc1cccc(NS(=O)(=O)c2ccc3[nH]cc(C(=O)NCCN4CCOCC4)c(=O)c3c2)c1 | 10% | 7% | -1.3 | 1.2% | -11% | 5 | 27
CCN1CCN(C(=S)c2ccc(Cl)c(Cl)c2)CC1 | 6% | 16µM* | 2.1 | -0.1% | 9% | -13 | 6
O=C(COc1ccc2c3c(c(=O)oc2c1)CCCC3)NCc1ccccn1 | -5% | 7% | . | 3.7% | -16% | -4 | 1
Cc1cccc(-n2nnc(C(=O)N3CCc4ccccc4C3)c2N)c1 | -8% | -6% | -0.1 | -0.3% | -25% | . | 46
O=C(Nc1cccc(F)c1)c1coc(=O)c(Br)c1 | 1%[15.4 µM] | -5% | 16 | -0.8% | -14% | 0 | -2
CCCCCCCCOC(=O)CCc1c(C)[nH]c(=S)[nH]c1=O | 14% | 9% | -2.3 | 1.4% | 6% | -9 | -3
COc1cccc(/C=C/C(=C2/C(=O)N(c3ccccc3)N=C2C)c2ccc(Br)cc2)c1OC | 7% | 9% | 3.9 | -1.7% | 8% | -48 | -10
O=[N+]([O-])c1ccc(CCn2ccnc2)cc1 | -33%[inhibitor] | 14% | 13 | 0.1% | 0% | 6 | 12
Cc1ccc(S(=O)(=O)Nc2cc(=O)[nH]c(SCc3ccccc3Cl)n2)cc1 | 16% | 5% | 1.4 | 2.3% | 7% | -6 | -2
CN(CC(=O)Nc1ccc(F)cc1)C(=O)COC(=O)Cc1cccs1 | ? | . | . | -5.3% | 6% | -1 | 3
CC(CNC(=O)c1cc(Cl)ccc1[N+](=O)[O-])NC(=O)c1cc(Cl)ccc1[N+](=O)[O-] (stereo not drawn) | -25% | 9% | 1.3 | -1.1% | 2% | 7 | -10
Cc1cccn2c(=O)nc(SCC(=O)N3CCC(C)CC3)nc12 | 34%[15.4 µM] | . | . | -0.2% | -1% | 8 | 14
CCS(=O)(=O)N1CCC(C(=O)NCCN2CCN(Cc3ccccc3)CC2)CC1 | -2% | 12% | 4.6 | 0.6% | -1% | 10 | 3
O=C1CNC(c2ccccc2)C(c2ccccc2)N1 (stereo not drawn) | -2% | . | . | -3.4% | . | . | 5
Cc1ccc(C(=O)c2ccc([N+](=O)[O-])cc2)c(C)c1 | 6% | 8% | -0.4 | 0.7% | -3% | -2 | 12
Cc1ccc(CC(=O)N2CCN(C(=O)C3CCCO3)CC2)cc1 (stereo not drawn) | -44%[inhibitor] | 11% | . | -1.1% | 2% | 8 | -6
Cc1ccc(NC(=O)c2cc(-n3cnnc3)ccc2Cl)cc1 | 4% | 2% | -2.6 | -2.2% | 2% | 3 | -9
CC1Cc2ccccc2N1C(=O)Cn1c(=O)oc2cc(S(=O)(=O)N3CCCCC3)ccc21 (stereo not drawn) | -25% | 7% | ? | -1.2% | -3% | -6 | 9
CCCN1CCC(=NNC(=O)c2ccc(Br)o2)CC1 | 1% | 22% | -0.5 | 1.2% | 2% | -11 | 2
CCc1nnc(NC(=O)CN2CCCC(C)C2)s1 (stereo not drawn) | -7% | -1% | 1.8 | 3.1% | 1% | 4 | -4
O=C(Oc1coc(CSc2nnc(NC(=O)c3cccs3)s2)cc1=O)c1ccccc1 | -6% | 6% | 3.4 | -0.4% | -15% | ? | 21
CCOC(=O)c1c(NC(=O)COC(=O)CCNS(=O)(=O)c2ccccc2)sc(C(=O)N(C)C)c1C | 1% | . | . | -1.8% | -12% | -2 | -6
Next part
SMILES | gsp agonist | Sfp inh | Menin-MLL FL inh | ClpP mod | gsp antag | TRPV1 PAM | TRPML1 inh
CC(C)CCn1c(SCCc2ccccc2)nc2c1c(=O)[nH]c(=O)n2C | ? | -11% | -0.8 | -4.5% | -2% | -9 | 16
Fc1ccc(Oc2ccnc(Cl)n2)c(Cl)c1 | 11%[15.4 µM] | . | . | . | 1% | . | 3
CCCc1ccc2oc(C(=O)N3CCN(c4cnccn4)CC3)c(C)c2c1 | -56%[inhibitor] | ? | . | ? | -3% | -10 | -4
O=C(Cc1ccc(Cl)cc1)NCCS(=O)(=O)N1CCN(c2ccccc2)CC1 | -6%[15.4 µM] | . | . | . | 9% | -6 | 21
CCN(CC)CCn1cnc2c1c(=O)[nH]c(=O)n2Cc1ccccc1 | 4% | 6% | 1.9 | 0.4% | 5% | -19 | -12
O=C(C1CCC(CNS(=O)(=O)c2cccc3cccnc23)CC1)N1CCc2ccccc21 (stereo not drawn) | 6% | 16% | 11 | -0.3% | ? | 12 | 33
S=C(NCCC1=CCCCC1)Nc1ccc(Cl)cc1 | 2% | -2% | -2.1 | -1.8% | 10% | -18 | 2

Bioassay records (PubChem BioAssay)
